# Bioassay records from PubChem BioAssay.
# Six1-Eya2 blk: qHTS Assay for Inhibitors of the Six1/Eya2 Interaction; Homeobox protein SIX1 (Homo sapiens) + Protein phosphatase EYA2 (Homo sapiens), …; AlphaScreen GST-Six1/His-Eya2 binding, biochemical; hits give low values; control for the full effect not named in the record; activity change, % (test concentration not listed); 360,000 compounds, 0.56% hits; AID 651725, 2012; in the data active = activity change below about -65%; inconclusive = about -30% to -65%; inactive = above about -30%; note: % is set by controls: 0 for no effect and ±100 for the full control effect
#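 Homogeneous AlphaScreen proximity assay pairing GST-Six1 with His-tagged Eya2 (added as 5X mix: 250 nM and 500 nM) in 50 mM Tris pH 8.0, 300 mM NaCl, 1 mM TCEP. Glutathione donor and nickel acceptor beads; 1 h, 37 °C, dark.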
# TRPML1 blocker: qHTS for Inhibitors of the Human Mucolipin Transient Receptor Potential 1 (TRPML1); Mucolipin-1 (Homo sapiens), Q9GZU1; TRPML1-inducible cells, Ca2+ dye fluorescence, FDSS; hits give low values; inhibition of EC80 agonist-evoked calcium signal; activity change, negative = inhibition, % (concentration not given with the values); 390,000 compounds, 0.02% hits; AID 624415, 2012; in the data active means activity change below about -50%; inconclusive means about -30% to -50%; inactive means above about -30%;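 note: stimulus is agonist 54-4 at its EC80 concentration; % is set by controls: 0 for no effect and ±100 for the full control effect; the text of the record puts the active cut at -80%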
# Target sequence (Q9GZU1 whole entry, looked up): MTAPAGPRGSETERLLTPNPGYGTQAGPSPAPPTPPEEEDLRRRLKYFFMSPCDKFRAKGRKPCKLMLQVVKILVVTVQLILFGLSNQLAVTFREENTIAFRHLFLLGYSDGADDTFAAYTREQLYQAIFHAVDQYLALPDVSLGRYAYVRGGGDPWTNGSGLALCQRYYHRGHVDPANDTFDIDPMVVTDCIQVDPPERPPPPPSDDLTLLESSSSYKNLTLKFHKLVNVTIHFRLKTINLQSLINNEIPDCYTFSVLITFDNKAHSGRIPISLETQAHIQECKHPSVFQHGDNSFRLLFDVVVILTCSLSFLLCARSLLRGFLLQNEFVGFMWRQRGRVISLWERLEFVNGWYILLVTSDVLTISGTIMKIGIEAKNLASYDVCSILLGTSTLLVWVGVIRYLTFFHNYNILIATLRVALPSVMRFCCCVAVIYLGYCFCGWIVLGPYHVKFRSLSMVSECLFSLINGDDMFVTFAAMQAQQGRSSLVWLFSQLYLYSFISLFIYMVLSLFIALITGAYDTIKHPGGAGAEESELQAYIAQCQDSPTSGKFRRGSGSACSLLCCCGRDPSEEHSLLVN
#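 Calcium fluorescence in TRPML1-DL cells induced overnight with Tet: a 110 s read after compound pin addition, then a 110 s antagonist read after challenge with 54-4 at 4 uM final (EC80).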
# D2 potentiator: Beta-Arrestin HTS for Positive Allosteric Modulators of the Human D2 Dopamine Receptor: Potentiators; D(2) dopamine receptor (Homo sapiens), P14416; DiscoveRx D2 beta-arrestin cells, luminescence, 90 min; 100% = 57 uM dopamine signal; potentiation, % (test concentration not listed); 360,000 compounds, 0.23% hits; AID 624464, 2012; active = potentiation of 50% or more; inconclusive = 30% to 50%; inactive = 30% or less;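 note: compound concentration not given in the record; tested on top of an EC20 dose of dopamine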
# Target sequence (P14416 whole entry, looked up): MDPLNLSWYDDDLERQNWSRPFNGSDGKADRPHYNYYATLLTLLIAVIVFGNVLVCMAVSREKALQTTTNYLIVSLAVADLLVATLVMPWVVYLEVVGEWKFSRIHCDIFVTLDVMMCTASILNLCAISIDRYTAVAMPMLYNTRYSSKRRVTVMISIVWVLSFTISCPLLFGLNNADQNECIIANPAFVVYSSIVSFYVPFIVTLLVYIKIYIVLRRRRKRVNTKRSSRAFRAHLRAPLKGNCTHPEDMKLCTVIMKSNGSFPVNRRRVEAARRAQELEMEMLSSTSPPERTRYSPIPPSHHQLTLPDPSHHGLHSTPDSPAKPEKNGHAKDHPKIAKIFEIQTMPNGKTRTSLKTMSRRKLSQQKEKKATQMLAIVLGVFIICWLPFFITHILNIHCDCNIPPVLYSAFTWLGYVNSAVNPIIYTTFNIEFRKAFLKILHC
#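 D2 cells co-treated with compound plus 50 nM dopamine (EC20) for 90 min at 37 deg C to detect potentiation. Beta-arrestin recruitment was read as enzyme-fragment luminescence after 1 h at ambient temperature. Full response was set by 57 uM dopamine.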
# TRPML1 ag: qHTS for Agonists of the Human Mucolipin Transient Receptor Potential 1 (TRPML1). Mucolipin-1 (Homo sapiens), Q9GZU1. TRPML1-expressing cells, Ca2+ dye fluorescence, FDSS; host cell line not named in the record; reference of the full effect not given here. activation, % (test concentration not listed). 410,000 compounds, 0.12% hits; in the data active = activation above about 50%; inconclusive = about 30% to 50%; inactive = below about 30%; note: 0% is about no effect; the text of the record puts the active cut at 80%
#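 Tet-induced TRPML1-DL cells, 1,500 per well, cultured overnight, were loaded with a no-wash Ca2+ dye for 45–90 min. Calcium fluorescence was recorded on the FDSS for 110 s after compound addition, before the EC80 agonist (4 uM 54-4) was added.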
# PINK1 modulator: A Quantitative High throughput Screen to Identify Chemical Modulators of PINK1 Expression; 410,000 compounds, 0.2% hits; PINK1 immunofluorescence, high-content cytometry, 24 h; Potency, µM (highest dose often 76.6 µM), for inactives: at the highest dose activation (PINK1 increase), hits mostly activators; active = well fitted activation curve with a large enough effect; inconclusive = small, poorly fitted or top-dose-only effect; inactive = flat fitted curve, though single readings scatter; cell line not stated here;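 note: potency is the fitted concentration of half-maximal effect; % of control where 0% means no effect; nearly all actives have a fitted effect of over 65% in size; a mitochondrial uncoupler was the plate control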
#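 Readout is PINK1 immunofluorescence, quantified alongside mitochondrial, cell and nuclear markers by laser-scanning microplate cytometry. Cells from a stable line were exposed to compound titrations (5 concentrations) for 24 hours, with CCCP controls.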
# D2 ag: Beta-Arrestin HTS for Positive Allosteric Modulators of the Human D2 Dopamine Receptor: Agonists. D(2) dopamine receptor (Homo sapiens), P14416. DiscoveRx PathHunter D2 beta-arrestin, luminescence, 90 min; 100% = 57 uM dopamine signal. activation, % (no concentration beside the values). 360,000 compounds, 0.084% hits; in the data active = activation above about 40%; inconclusive = about 15% to 40%; inactive = below about 15%; note: compound concentration not given in the record; the text of the record calls up to 30% inactive
#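 Agonist mode: compounds alone added to overnight-plated D2 PathHunter cells for 90 min at 37 C, with 57 uM final dopamine (EC100) defining full response. Beta-arrestin recruitment detected by chemiluminescent reagent, read after 1 h at ambient temperature.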
# An asterisk follows results filed as active; ? = inconclusive; . = no result given; [ ] = remark or other dose.
Structure	Six1-Eya2 blk	TRPML1 blocker	D2 potentiator	TRPML1 ag	PINK1 modulator	D2 ag
O=C(c1cccnc1)N1CCN(CCCc2ccccc2)CC1	4.8	-0.8	-9.3	-0.4	0.6%[38.3 µM]	5.6
COc1ccc(CNC(=O)CCCn2nc(C)n3ccnc3c2=O)cc1	2.3	-3.1	-7.3	-0.1	2.2%	-6.9
COc1ccc(/C=C/C(=O)C23CC4CC(CC(C4)C2)C3)cc1CN1CCOCC1	-2.6	65.7	-6.7	0.1	-1.5%	-5.2
Cc1cccc(CSCCNC(=O)CSCc2ccc([N+](=O)[O-])cc2)c1	-11.6	23.1	-21.0	1.6	0.9%	0.4
CN(C)c1ccc(NC(=O)Cn2ncn3c(cc4ccccc43)c2=O)cc1	1.1	0.4	-3.3	-0.4	.	-1.0
Cc1ccc(-c2nnc(CSc3nc4cc5c(cc4cc3C)OCO5)o2)cc1	3.4	-6.9	-0.7	1.0	7.5%[38.3 µM]	0.9
O=C(c1ccoc1)N1CCCC(N2CCN(c3cccc(C(F)(F)F)c3)CC2)C1 (stereo unspecified)	-1.3	0.9	-15.1	1.2	-2.1%	-0.6
CN(C(=O)COC(=O)c1ccccc1SCC(=O)N1CCCC1)c1ccccc1	1.2	-6.1	-3.4	0.4	-0.3%	-5.9
CC(=O)Nc1ccc(S(=O)(=O)N(C#N)c2nc(C)cc(C)n2)cc1	4.5	-12.0	-2.2	0.7	1.2%	0.3
CCC1(C)NC(=O)N(CC(=O)c2cc(C)n(C3CC3)c2C)C1=O (stereo unspecified)	3.8	3.3	-69.1	-0.1	-3.4%	-0.4
CCOC(=O)c1cnc(N2CCN(c3cccc(C)c3C)CC2)c2ccccc12	.	-8.0	.	-0.5	2.1%	.
O=C(CSc1ccccn1)N1CCN(c2ccccc2)CC1	1.1	-5.2	-11.6	0.6	-2.5%[38.3 µM]	0.7
COc1ccccc1C(=O)NNC(=O)c1cccc(Br)c1	3.0	14.1	-2.7	0.0	2.2%	-3.4
CCOC(=O)CSc1nnc(CSc2nc3ccccc3c(=O)[nH]2)n1-c1ccccc1	4.4	-9.1	-12.9	-0.1	0.8%	-1.8
CC(C)c1nnc(NC(=O)CCC(=O)NCc2cccs2)s1	7.6	22.2	0.5	-0.2	0.1%[38.3 µM]	0.9
Cc1ccc(-c2nc(Nc3ccc(N4CCOCC4)cc3)c3ccccc3n2)cc1	-18.7	9.4	-1.4	-0.2	1.6%	7.9
CC(C)Oc1ccc(C(=O)N2CCN(C(=O)c3ccco3)CC2)cc1	-4.3	1.0	-8.4	-0.2	-1.6%	-7.9
Clc1cccc(-c2ccc(CNCCSc3nnnn3-c3ccccc3)o2)c1	.	0.1	.	0.1	2.5%	.
O=C(Cn1cnc2cc([N+](=O)[O-])ccc2c1=O)NC(=O)NCc1ccccc1	-18.6	-2.8	7.6	0.0	-1.6%	8.9
CC(=O)c1sc(=S)n(Cc2ccccc2)c1C	2.5	.	4.4	.	2.6%	-5.7
Cc1ccc(C(=O)N2CCN(c3ccc(NC(=O)c4ccc(Br)o4)cc3)CC2)cc1	-21.9	11.1	-19.4	1.9	0.8%	4.8
CCC(CO)NS(=O)(=O)c1cc(-c2nn(C)c(=O)c3ccccc23)ccc1C (stereo unspecified)	-19.6	-7.6	-3.2	-0.2	0.6%	-3.2
NC(=O)CSc1nc2ccccc2c(=O)n1Cc1ccccc1	0.0	-10.4	0.4	0.2	0.8%	-1.4
CCOC(=O)c1ccc(N=Nc2c(C)[nH]n(-c3ccccc3)c2=O)cc1	?	-7.8	-17.2	0.4	4.3%	-3.7
CCCn1nnnc1NCc1ccccc1OCc1ccc(F)cc1	5.8	22.4	-9.5	0.6	2.8%[38.3 µM]	1.3
COc1ccc(C(=O)OCn2nnc3ccccc3c2=O)cc1[N+](=O)[O-]	-6.7	-7.2	-4.8	1.7	-0.9%	7.2
COc1ccc(-c2nn(-c3ccccc3)cc2C(=O)O)cc1	7.1	7.2	-1.9	-0.8	-0.5%	-6.7
COc1ccc(C(=O)Nc2ccc(-n3nncc3C(C)(C)C)cc2)cc1	14.6	6.8	-9.7	1.3	1.6%	-6.2
O=C(/C=C/c1ccccc1)OCC(=O)N1CCN(c2ccccc2)CC1	-1.2	1.5	-16.0	0.6	2.8%	-5.1
O=C(CCn1cnc2onc(-c3ccc(F)cc3)c2c1=O)N1CCN(c2ccccc2F)CC1	.	2.7	.	0.7	-0.6%	.

# (more compounds)
Structure	Six1-Eya2 blk	TRPML1 blocker	D2 potentiator	TRPML1 ag	PINK1 modulator	D2 ag
O=C(COC(=O)CCCN=C1NS(=O)(=O)c2ccccc21)NC(=O)NC1CCCC1	6.6	-2.2	2.8	1.3	1.8%	-2.0
Cc1ccc(NC(=O)c2oc3ccccc3c2C)nc1	7.1	21.3	-8.3	2.3	4.0%	0.5
CC(C)(C)NC(=S)NC1CC1	4.0	-9.3	-5.0	-0.6	0.6%	-1.6
O=C(Nc1cc(-c2ccccc2)cs1)c1ccco1	-0.2	11.0	1.5	1.5	0.1%	-1.0
CCOc1ccccc1NS(=O)(=O)c1ccc2c(c1)CC(C)N2C(=O)C1CCC1 (stereo unspecified)	.	-22.7	.	3.6	-0.3%	.
COc1ccccc1NC(=O)CN(c1ccc(C(C)C)cc1)S(=O)(=O)c1c(C)noc1C	.	-13.4	.	-0.3	1.9%	.
O=S(=O)(c1ccc(NCCCO)nc1)N1CCOCC1	2.3	6.1	-3.9	0.5	-1.4%	12.4
O=C(NC1(c2ccccc2)CC1)C1CCC(=O)N(Cc2ccc(Cl)cc2)C1 (stereo unspecified)	0.0	-6.2	0.3	-0.6	-0.6%	-2.0
COc1ccc(CC(N)c2csc(NC(=O)NCc3ccccc3)n2)cc1 (stereo unspecified)	-23.1	.	2.3	0.1	2.3%	6.7
COc1cccc(CN(C)CC(=O)Nc2cccc3ccccc23)c1	-6.4	14.4	-2.4	0.3	0.0%	-3.3
CN(C)c1ccc(NC(=O)Nc2csc3ccccc23)cc1	?	66.3	-8.0	0.6	0.4%	3.8
COc1ccccc1C(=O)COC(=O)Cn1nc(C)c([N+](=O)[O-])c1C	1.3	-13.2	-11.6	1.1	-4.8%	0.6
CC(OC(=O)C1=COCCO1)C(=O)NC1CCCCC1C (stereo unspecified)	-0.9	2.7	-22.7	-0.7	-0.1%	8.2
CCOc1cc(C(=O)Nc2ccc3nc(Nc4cccc(Cl)c4)cc(C)c3c2)cc(OCC)c1OCC	.	-7.5	.	0.0	0.0%	.
NC(=O)C1CCN(S(=O)(=O)c2cccc(C(=O)O)c2)CC1	1.5	0.1	-23.4	0.1	3.9%	-1.2
COc1ccc(C(=O)NCCS(=O)(=O)N(C)C2CCCCC2)cc1	11.5	-4.2	-19.5	-0.1	-3.3%	-1.8
Cc1cc(C(=O)CSc2nc(N)cc(N)n2)c(C)n1-c1cccc(C(F)(F)F)c1	1.2	-10.5	-2.4	2.4	6.2%	-0.9
CC(C)(C)c1nnc(N/N=C/c2ccccc2)n(N)c1=O	-1.1	8.0	-10.2	1.2	1.8%	3.5
O=C1C2C3C=CC(C4CC34)C2C(=O)N1/N=C/c1ccc(-c2ccc(Cl)cc2[N+](=O)[O-])o1 (stereo unspecified)	?	19.1	-11.9	0.4	-0.5%	0.7
O=C(NCCc1c[nH]c2ccccc12)C(=O)NCC(c1ccco1)N1CCN(c2ccccc2)CC1 (stereo unspecified)	5.7	5.1	15.1	0.0	3.9%	7.8
CC(=O)c1ccc(NC(=O)CSc2nnc3ccc(-c4ccc(Br)cc4)nn23)cc1	.	2.7	.	-0.2	-6.0%	.
COCCCNC(=S)Nc1c(C)cc(C)cc1C	11.4	-2.8	-9.9	0.4	1.1%	-19.3
O=C(NC(=S)Nc1cccc(O)c1)c1cncc(Br)c1	9.5	6.3	-19.9	0.1	-1.7%	-7.0
Cc1ccc(C)n1-c1ccc(C(=O)NN=C2CCCC2)cc1	3.2	-11.6	-0.6	0.2	0.0%	0.1
CC(C)N1C(=O)C(=O)N(CC(=O)N(C)c2ccccc2)C1=O	0.6	-1.1	-5.3	0.0	0.8%	-5.9
Cc1nc2ccccn2c1C(=O)Nc1ccc(Cl)cc1	-5.2	-2.1	-5.0	1.4	0.7%	-4.8
Cc1ccc(/C=C/C(=O)C2C(=O)c3ccccc3C2=O)cc1	4.1	-9.4	-2.3	0.3	-5.9%[38.3 µM]	0.5
CC(=O)C1=C(O)C(=O)N(c2cccnc2)C1c1ccc(Cl)cc1 (stereo unspecified)	2.9	3.6	-0.4	0.1	1.9%	-2.4
N#C/C(C(=O)N1CCCCC1)=C1/N=C(N)c2ccccc21	2.7	0.3	-10.2	0.1	-1.6%	-4.9
O=C(NNC(=S)NCc1ccccc1)c1ccc2c(c1)OCO2	-0.7	-4.4	-15.8	-0.3	0.0%	-1.3

# Random excerpt: 2 entries already listed, in no set order.
Structure	Six1-Eya2 blk	TRPML1 blocker	D2 potentiator	TRPML1 ag	PINK1 modulator	D2 ag
N#C/C(C(=O)N1CCCCC1)=C1/N=C(N)c2ccccc21	2.7	0.3	-10.2	0.1	-1.6%	-4.9
COc1ccc(/C=C/C(=O)C23CC4CC(CC(C4)C2)C3)cc1CN1CCOCC1	-2.6	65.7	-6.7	0.1	-1.5%	-5.2

# Additional structures
Structure	Six1-Eya2 blk	TRPML1 blocker	D2 potentiator	TRPML1 ag	PINK1 modulator	D2 ag
O=C(NCCOc1ccccc1)c1ccccc1	0.8	8.6	1.1	1.3	?	-2.8
O=C(CCC(=O)N/N=C/c1ccc(Br)o1)N/N=C/c1ccc(Br)o1	0.6	-11.3	-1.0	0.4	-0.7%	3.0
CC(=O)c1cccc(NC(=O)CSc2nc(N3CCCCC3)nc(N3CCCCC3)n2)c1	-4.5	-2.2	-1.9	-0.7	5.1%	2.7
COc1ccc(-c2nc3c(c(SCC(=O)Nc4cc(C)cc(C)c4)n2)Cc2c(CO)cnc(C)c2O3)cc1	.	10.2	.	-0.1	2.7%	.
COc1ccc(CNC(=O)C2CCN(S(=O)(=O)N3CCOCC3)CC2)cc1	6.0	-9.0	3.1	1.2	6.5%	2.0
COc1ccccc1N1CCN(C(=O)c2ccc(Cn3c(=S)[nH]c4cc5c(cc4c3=O)OCO5)cc2)CC1	0.0	-4.4	-2.5	-0.2	-1.0%	3.3
CC(C)n1nccc1N(Cc1ccc(C#N)cc1)S(=O)(=O)c1ccccc1	3.4	40.8	0.5	1.3	-0.2%	3.1
